High-throughput results (PubChem)
Vaccinia inh: blocks a specific stage of Vaccinia orthopoxvirus infection, primary screen, cell-based, single point; Vaccinia-infected cells, mCherry/Venus stage reporter fluorescence; active compounds read low; some inactives read as strong as hits; activity change (mCherry), % (test concentration not listed); 0.01% of 89,000 active; AID 1053133, 2014;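 active = mCherry past -33% and 40 or more points under the early reporter, replicates agreeing; inconclusive = past -33% without that gap or agreement; tested in A549 cells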;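 also: scaled between vehicle wells and reference inhibitor wells; 23 nL library stock went into each well; one replicate is shown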
Vaccinia inh Venus: further read-out of Vaccinia inh, marked with its call; activity change (Venus), %; measured here: Venus reporter, other viral stage;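 negative = less Venus signal; first of two replicates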
An asterisk follows results filed as active; u = inconclusive; x = not tested or not shown. This is a subset; count on the stated rates, not on these rows.

The line under a structure holds: Vaccinia inh | Vaccinia inh Venus
> CCCC#Cc1ccc([C@H]2[C@@H](CO)N3C(=O)CN(C(=O)Nc4ccc(F)cc4)C[C@H]23)cc1
 : -10 | -4
> C[C@H]1CN([C@@H](C)CO)C(=O)c2cc(NC(=O)Cc3ccccc3)ccc2O[C@H]1CN(C)Cc1ccc(C(=O)O)cc1
 : 18 | 8
> CCC(=O)Nc1ccc2c(c1)OC[C@@H](C)N(Cc1cncnc1)C[C@H](C)[C@H](OC)CN(C)C2=O
 : 2 | 2
> COc1ccccc1-c1cnc2c(c1)C(=O)N([C@@H](C)CO)C[C@H](C)[C@@H](CN(C)Cc1cccnc1)O2
 : -7 | -4
> C[C@@H]1CN([C@H](C)CO)S(=O)(=O)c2ccc(C#Cc3ccccn3)cc2O[C@H]1CN(C)Cc1ccccc1
 : 4 | 7
> C[C@@H]1CN([C@@H](C)CO)C(=O)c2cc(NC(=O)C3CCCCC3)ccc2O[C@H]1CN(C)S(=O)(=O)c1ccccc1
 : 14 | 15
> C[C@@H]1CN([C@H](C)CO)C(=O)c2cc(-c3ccc(F)cc3)cnc2O[C@H]1CN(C)Cc1ccc(C(=O)O)cc1
 : 12 | 4
> O=C(Nc1ccccc1)N1CC(=O)N2[C@H](CO)[C@@H](c3ccc(C#Cc4cccnc4)cc3)[C@@H]2C1
 : -15 | -9
> C[C@H](CO)N1C[C@H](C)[C@H](CN(C)C)Oc2ncc(-c3ccccc3F)cc2C1=O
 : -3 | 1
> CCC(=O)N1CCC2(CC1)CN(Cc1ccc(Cl)cc1)[C@@H](CO)c1[nH]c3cc(OC)ccc3c12
 : 3 | 4
> COc1cccc(S(=O)(=O)N[C@H]2CC[C@@H](CCNC(=O)Nc3cc(F)ccc3F)O[C@H]2CO)c1
 : -6 | 7
> C[C@@H]1CN([C@@H](C)CO)C(=O)c2cc(NC(=O)Nc3ccc(C(F)(F)F)cc3)ccc2O[C@H]1CN(C)Cc1ccc(Oc2ccccc2)cc1
 : u | x
> CN1c2ccc(-c3ccc(F)cc3)cc2[C@@H]2[C@@H](CCN2C(=O)Nc2cc(F)ccc2F)[C@@H]1CO
 : u | x
> CCCC(=O)Nc1ccc2c(c1)C(=O)N(C)[C@H]1CC[C@H](CC(=O)NCC3CCCCC3)O[C@H]1CO2
 : 2 | 10
> O=C(c1ccc2c(c1)OCO2)N1C[C@@H]2N[C@H](C1)C2c1ccc(-c2ccncc2)cc1 (stereo not given in full)
 : u | x
> C[C@@H]1CN([C@H](C)CO)C(=O)c2cc(NS(C)(=O)=O)ccc2O[C@@H](C)CCCCO[C@H]1CN(C)Cc1ccc(Cl)c(Cl)c1
 : u | x
> C[C@H](NC(=O)C[C@H]1C=C[C@@H](NS(=O)(=O)c2cccc(F)c2)[C@H](CO)O1)c1ccccc1
 : -2 | 8
> C[C@@H]1CN([C@H](C)CO)C(=O)c2cc(NC(=O)Nc3ccc(F)cc3)ccc2O[C@@H](C)CCCCO[C@H]1CN(C)Cc1ccc2c(c1)OCO2
 : u | x
> OC[C@@H]1[C@H]2c3ccccc3NC[C@H]2N1CC1CCCCC1
 : 1 | 9
> COc1ccc(NC(=O)Nc2ccc3c(c2)C(=O)N([C@H](C)CO)C[C@H](C)[C@H](CN(C)C(=O)NC(C)C)OCCCC[C@@H](C)O3)cc1
 : 12 | 10
> C[C@@H]1CN([C@@H](C)CO)C(=O)c2cccc(NC(=O)Nc3ccc(F)cc3)c2O[C@H]1CN(C)C(=O)Nc1ccc(F)cc1
 : -1 | -2
> CCCNC(=O)N1CC2(C1)[C@@H](c1ccccc1)[C@@H](CO)N2CC1CC1
 : 0 | 3
> O=C(Nc1cccc(F)c1)N1CC(=O)N2[C@@H](CO)[C@@H](c3ccc(-c4ccccc4)cc3)[C@@H]2C1
 : -23 | -17
> Cc1noc(C)c1NC(=O)N(C)C[C@H]1OCCCC[C@@H](C)Oc2ccc(NC(=O)Nc3ccc(C(F)(F)F)cc3)cc2C(=O)N([C@@H](C)CO)C[C@H]1C
 : 8 | 11
> COc1ccc2c3c(n(C)c2c1)[C@@H](CO)N(CC1CC1)CC31CCN(C(=O)NC2CCCC2)CC1
 : 2 | 4
> CC=Cc1ccc2n(c1=O)C[C@@H]1[C@@H](CO)[C@H](C(=O)N3CCc4ccccc4C3)[C@H]2N1Cc1ccccc1 (mixture of isomers)
 : -14 | -9
> O=C(NC[C@@H]1[C@@H](c2ccccc2)[C@@H](CO)N1Cc1ccccc1)c1ccccn1
 : 14 | 14
> COc1cccc(S(=O)(=O)N[C@@H]2CC[C@@H](CC(=O)NC3Cc4ccccc4C3)O[C@H]2CO)c1
 : -1 | 3
> C[C@@H]1CCCCO[C@@H](CN(C)Cc2ccccc2)[C@H](C)CN([C@H](C)CO)C(=O)c2cc(NS(=O)(=O)c3cccs3)ccc2O1
 : u | x
> CN(C)C(=O)C[C@H]1C=C[C@@H](NC(=O)C2CC2)[C@@H](CO)O1
 : 13 | 3
> Cc1noc(C)c1NC(=O)Nc1ccc2c(c1)CC(=O)N([C@@H](C)CO)C[C@H](C)[C@@H](CN(C)Cc1ccncc1)O2
 : 16 | 2
> COCC(=O)N1[C@H](CO)[C@H](c2ccccc2)C12CN(C(=O)Cc1ccccn1)C2
 : 4 | 9
> C[C@H](CO)N1C[C@H](C)[C@@H](CN(C)Cc2ccccc2)Oc2cc(C#CC(C)(C)O)ccc2S1(=O)=O
 : -28 | -26
> O=S(=O)(N[C@H]1CC[C@H](CCn2cc(-c3ccccn3)nn2)O[C@@H]1CO)c1cccc(Cl)c1
 : -24 | -24
> O=C(NCC[C@H]1CC[C@@H](NC(=O)c2cccnc2)[C@H](CO)O1)Nc1ccc(F)cc1
 : 4 | -1
> CCC(=O)N(C)C[C@@H]1Oc2cc(C#CC3(O)CCCC3)ccc2S(=O)(=O)N([C@H](C)CO)C[C@H]1C
 : 3 | 16
> C[C@H]1CN([C@@H](C)CO)C(=O)c2cc(C#Cc3ccccn3)cnc2O[C@H]1CN(C)C(=O)c1cnccn1
 : 8 | 15
> Cc1ccccc1-c1ccc2c(c1)O[C@@H](CN(C)C(=O)Nc1ccc(C(F)(F)F)cc1)[C@@H](C)CN([C@@H](C)CO)S2(=O)=O
 : u | x
> COc1ccc(S(=O)(=O)N(C)C[C@@H]2Oc3ccc(NC(=O)NC(C)C)cc3CC(=O)N([C@H](C)CO)C[C@@H]2C)cc1
 : 7 | 0
> CO[C@H]1CN(C)C(=O)c2cc(NC(=O)C3CCCC3)ccc2OC[C@@H](C)N(CCC(F)(F)F)C[C@H]1C
 : -17 | -10
> O=C(C[C@H]1CC[C@H]2[C@@H](COC[C@H](O)CN2S(=O)(=O)c2ccc(Cl)cc2)O1)N[C@@H]1CCN(Cc2ccccc2)C1
 : -22 | -13
> CCC(=O)N1CC2(C1)[C@@H](c1ccccc1)[C@@H](CO)N2CC1CCCC1
 : -5 | 1
> O=C(C[C@H]1CC[C@H]2[C@@H](COC[C@@H](O)CN2CC2CCOCC2)O1)NCc1ccc(Cl)cc1
 : 6 | -2
> COc1ccc(CN(C)C[C@@H]2Oc3ccc(NS(=O)(=O)c4ccc(OC)cc4)cc3CC(=O)N([C@H](C)CO)C[C@H]2C)cc1
 : -2 | -4
> C[C@@H]1CN([C@@H](C)CO)C(=O)c2cccc(NS(=O)(=O)c3ccc(F)cc3)c2O[C@H]1CN(C)C(=O)Nc1ccc(C(F)(F)F)cc1
 : -13 | -1
> COc1ccc(NC(=O)N(C)C[C@@H]2Oc3ccc(NC(=O)Nc4cccc5ccccc45)cc3CC(=O)N([C@H](C)CO)C[C@@H]2C)cc1
 : 3 | 4
> C[C@H](CO)N1C[C@H](C)[C@H](CN(C)Cc2ccc(C(=O)Nc3ccccc3N)cc2)Oc2ccc(N(C)C)cc2CC1=O
 : -34 | -25
> COc1cccc(C#Cc2ccc3c(c2)O[C@H](CN(C)C)[C@H](C)CN([C@H](C)CO)S3(=O)=O)c1
 : u | x
> COc1ccc(NC(=O)N(C)C[C@@H]2Oc3c(NC(=O)Nc4cccc5ccccc45)cccc3C(=O)N([C@@H](C)CO)C[C@H]2C)cc1
 : -22 | -8
> CCCN1[C@@H]2Cn3c(ccc(-c4ccncc4)c3=O)[C@H]1[C@@H](C(=O)NCC1CC1)[C@@H]2CO
 : 3 | -3
> COCC(=O)Nc1ccc2c(c1)C(=O)N(C)[C@@H]1CC[C@H](CC(=O)N3CCc4ccccc4C3)O[C@@H]1CO2
 : -20 | -14
> O=C(C[C@@H]1CC[C@@H]2[C@H](COC[C@H](O)CN2S(=O)(=O)c2ccccc2)O1)NCCN1CCCC1
 : 20 | 1
> CC(C)NC(=O)NCC[C@@H]1CC[C@H](NS(=O)(=O)c2ccc(-c3ccccc3)cc2)[C@H](CO)O1
 : -12 | -10
> CN(C)c1ccc2c(c1)[C@@H]1C[C@H](CC(=O)N3CCc4ccccc4C3)O[C@@H](CO)[C@@H]1O2
 : 3 | 1
> O=C(NCC[C@@H]1CC[C@H](NC(=O)C2CCCC2)[C@@H](CO)O1)Nc1ccc(Cl)cc1
 : -8 | 2
> CO[C@H]1CN(C)C(=O)c2ccc(NS(=O)(=O)c3ccc(C)cc3)cc2OC[C@H](C)NC[C@H]1C
 : 15 | 8
> C[C@H](CO)N1C[C@H](C)[C@H](CN(C)C(=O)NC2CCCCC2)Oc2ccc(NC(=O)CCN3CCOCC3)cc2C1=O
 : 15 | -2
> COc1ccc(NC(=O)N(C)C[C@H]2Oc3ccc(NC(=O)Nc4ccccc4)cc3CC(=O)N([C@@H](C)CO)C[C@@H]2C)cc1
 : 16 | 18
> C[C@@H]1CN([C@H](C)CO)C(=O)CCCn2nncc2CO[C@H]1CN(C)C(=O)Nc1ccccc1F
 : -1 | 1
> COc1ccc(CNC(=O)C[C@H]2C[C@H]3c4cc(NC(=O)CN(C)C)ccc4O[C@H]3[C@H](CO)O2)cc1
 : 13 | 12

For convenience, some entries already given:
The line under a structure holds: Vaccinia inh | Vaccinia inh Venus
> CO[C@H]1CN(C)C(=O)c2cc(NC(=O)C3CCCC3)ccc2OC[C@@H](C)N(CCC(F)(F)F)C[C@H]1C
 : -17 | -10
> O=C(C[C@H]1CC[C@H]2[C@@H](COC[C@H](O)CN2S(=O)(=O)c2ccc(Cl)cc2)O1)N[C@@H]1CCN(Cc2ccccc2)C1
 : -22 | -13
> CCC(=O)N1CC2(C1)[C@@H](c1ccccc1)[C@@H](CO)N2CC1CCCC1
 : -5 | 1
> O=C(C[C@H]1CC[C@H]2[C@@H](COC[C@@H](O)CN2CC2CCOCC2)O1)NCc1ccc(Cl)cc1
 : 6 | -2
> COc1ccc(CN(C)C[C@@H]2Oc3ccc(NS(=O)(=O)c4ccc(OC)cc4)cc3CC(=O)N([C@H](C)CO)C[C@H]2C)cc1
 : -2 | -4
> C[C@@H]1CN([C@@H](C)CO)C(=O)c2cccc(NS(=O)(=O)c3ccc(F)cc3)c2O[C@H]1CN(C)C(=O)Nc1ccc(C(F)(F)F)cc1
 : -13 | -1
> COc1ccc(NC(=O)N(C)C[C@@H]2Oc3ccc(NC(=O)Nc4cccc5ccccc45)cc3CC(=O)N([C@H](C)CO)C[C@@H]2C)cc1
 : 3 | 4
> C[C@H](CO)N1C[C@H](C)[C@H](CN(C)Cc2ccc(C(=O)Nc3ccccc3N)cc2)Oc2ccc(N(C)C)cc2CC1=O
 : -34 | -25
> COc1cccc(C#Cc2ccc3c(c2)O[C@H](CN(C)C)[C@H](C)CN([C@H](C)CO)S3(=O)=O)c1
 : u | x

Other entries
The line under a structure holds: Vaccinia inh | Vaccinia inh Venus
> C[C@H](CO)N1C[C@H](C)[C@H](CN(C)Cc2ccc3c(c2)OCO3)OCc2cn(nn2)CCCC1=O
 : 4 | 0
> O=C([C@@H]1[C@@H](CO)[C@@H]2Cn3c(ccc(-c4cccnc4)c3=O)[C@H]1N2Cc1cccnc1)N1CCOCC1
 : 8 | 13
> CO[C@@H]1CN(C)C(=O)c2ccc(NS(=O)(=O)c3ccc(Cl)cc3)cc2OC[C@H](C)N(C(=O)NC(C)C)C[C@@H]1C
 : -14 | -1
> CCCNC(=O)N1CC2(C1)CN(Cc1ccc(F)cc1)[C@@H](CO)c1[nH]c3cc(OC)ccc3c12
 : 9 | 9
> COc1ccc2c3c(n(C)c2c1)[C@H](CO)N(C(=O)NC1CCCCC1)CC31CCN(C)CC1
 : 3 | -8
> Cc1ccc(S(=O)(=O)N(C)C[C@@H]2Oc3c(cccc3N(C)C)C(=O)N([C@@H](C)CO)C[C@H]2C)cc1
 : 9 | 4
> COc1ccccc1S(=O)(=O)N[C@@H]1CC[C@@H](CCNC(=O)C2CCC2)O[C@@H]1CO
 : 5 | 6
> C[C@H](CO)N1C[C@H](C)[C@H](CN(C)S(=O)(=O)c2ccc(Cl)cc2)OCCCC[C@H](C)Oc2ccc(NC(=O)Cc3ccccc3)cc2C1=O
 : u | x
> C[C@H](CO)N1C[C@H](C)[C@@H](CN(C)CC2CC2)Oc2c(NS(=O)(=O)c3ccccc3)cccc2C1=O
 : 7 | 8
> N#C[C@@H]1[C@H](c2ccccc2)[C@@H](CO)N1S(=O)(=O)c1ccc(F)cc1
 : 19 | 16
> C=CCOC(=O)[C@H]1[C@@H]2C(=O)O[C@@H](c3ccccc3)[C@@H](c3ccccc3)N2[C@@H](c2ccc(OCCOC(=O)[C@@H]3C[C@@H]4C(=O)N[C@@H](CC(C)C)C(=O)N4[C@@H]3c3ccc(O)cc3)cc2)[C@]12C(=O)Nc1ccc(I)cc12
 : 15 | 8
> O=C(C[C@@H]1C[C@H]2c3cc(NC(=O)C4CCC4)ccc3O[C@H]2[C@@H](CO)O1)NCc1ccccn1
 : 6 | 4
> O=C(C[C@@H]1CC[C@@H]2[C@H](COC[C@@H](O)CN2S(=O)(=O)c2cccc(Cl)c2)O1)N1CCCCC1
 : 0 | 17
